RGS16-Gao HTS: modulators of RGS16 binding to Galphao, primary screen, biochemical, human proteins, multiplexed bead flow cytometry; Regulator of G-protein signaling 16 (Homo sapiens) + Guanine nucleotide-binding protein …; AID 1441, 2008; 0.38% of 220,000 active; bead-based flow cytometry RGS16-Galphao binding, fluorescence; actives lie on both sides; binding response (% of control), % at 10 µM;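 active means below 25% or above 175%, edge rows of some plates excepted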;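 further: Galphao activated by GDP with aluminum fluoride before binding; 100% = wells without compound and 0% = beads without RGS; some results beyond the cut were filed as inactive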
Target sequence (O15492 whole entry, looked up): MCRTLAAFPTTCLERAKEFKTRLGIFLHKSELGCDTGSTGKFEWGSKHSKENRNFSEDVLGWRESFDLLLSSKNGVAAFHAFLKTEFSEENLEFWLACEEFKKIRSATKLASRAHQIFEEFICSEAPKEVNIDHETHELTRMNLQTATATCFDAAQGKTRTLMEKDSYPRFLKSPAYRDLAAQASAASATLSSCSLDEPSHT
Target sequence (P09471 whole entry, looked up): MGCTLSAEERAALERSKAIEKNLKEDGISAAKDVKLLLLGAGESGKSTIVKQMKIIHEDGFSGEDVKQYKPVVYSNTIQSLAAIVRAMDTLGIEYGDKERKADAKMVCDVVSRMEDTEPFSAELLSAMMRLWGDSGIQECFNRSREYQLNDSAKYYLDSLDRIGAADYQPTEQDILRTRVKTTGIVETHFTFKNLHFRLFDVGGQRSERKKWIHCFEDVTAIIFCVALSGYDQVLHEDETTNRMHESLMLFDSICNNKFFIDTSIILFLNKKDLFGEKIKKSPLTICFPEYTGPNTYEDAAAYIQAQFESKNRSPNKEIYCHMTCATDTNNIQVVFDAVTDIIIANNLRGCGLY
PKD1 kinase inh: inhibitors of human PKD1 kinase, biochemical, fluorescence polarization; Serine/threonine-protein kinase D1 (Homo sapiens), Q15139; PKD1 kinase fluorescence polarization assay; inhibition, %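 (about 10 µM by stock and volumes)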; 0.056% of 200,000 active;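 active means inhibition of 50% or more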;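 further: controls were vehicle for no effect and a reference inhibitor for full effect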
INS promoter inh: inhibitors of insulin promoter-driven GFP, primary screen, imaging, TRM-6 cells (human fetal islet line), eGFP reporter, cell count. inhibition, % at 2 µM. 0.9% of 130,000 active. reporter expression induced with tamoxifen. AID 1273, 2008;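 active means inhibition above the mean plus 3 SD, with well images judged a real hit on visual review, cut at about 60% in these data, passing the limit was not always enough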
GALR2 ag: GALR2 receptor agonists, primary screen, cell-based. Galanin receptor type 2 (Homo sapiens), O43603. GALR2-expressing cells, agonist activation read-out. activation, %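 (tested at 5 µM)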. 0.48% of 140,000 active. AID 803, 2007;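 active means above mean plus 3 SD of all compounds, about 5% in these data, not always enough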;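 further: 0% = vehicle buffer wells and 100% = reference agonist at full effect; tested in CHO reporter cells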
Target sequence (O43603 whole entry, looked up): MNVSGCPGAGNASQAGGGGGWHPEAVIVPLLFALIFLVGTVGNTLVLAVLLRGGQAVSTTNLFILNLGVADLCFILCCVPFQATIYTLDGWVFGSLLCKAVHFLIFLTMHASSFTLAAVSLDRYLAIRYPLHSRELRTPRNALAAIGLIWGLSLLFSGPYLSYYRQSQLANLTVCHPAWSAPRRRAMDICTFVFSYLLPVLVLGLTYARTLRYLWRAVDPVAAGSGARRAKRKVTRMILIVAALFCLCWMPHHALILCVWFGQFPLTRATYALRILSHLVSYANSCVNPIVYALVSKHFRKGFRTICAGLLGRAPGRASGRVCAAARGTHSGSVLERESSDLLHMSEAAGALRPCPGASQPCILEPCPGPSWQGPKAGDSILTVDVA
HSV replic up: enhancers of HSV replication in host cells, fold increase, host cell viability; HSV replication augmentation in cells; maximum fold increase; 0.005% of 220,000 active; AID 1956, 2009;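 active means peak rise of 1.5-fold or more in the series; tested in PC3 cells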;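 further: first round at 10 µM; read as green reporter fluorescence; hits show the peak of a series up to 25 µM; 1 = signal of infected wells without compound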
INS promoter inh cell count: further read-out of INS promoter inh, marked with its call; normalized cell count, %; measured here: cell count, toxicity; reference of the scale not given here;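 cells exposed to compound for 48 h; stained nuclei by imaging scaled within each plate; lower means fewer cells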
HSV replic up primary fold: also measured in HSV replic up; calls as there; fold increase; compound at 10 µM; measured here: primary screen fold increase 10 uM; tested in PC3 cells;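 GFP signal in the first replicate; 1 = infected wells without compound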
An asterisk follows results filed as active; i = inactive; · = no result given.

SMILES	RGS16-Gao HTS	PKD1 kinase inh	INS promoter inh	INS promoter inh cell count	GALR2 ag	HSV replic up	HSV replic up primary fold
CCOC(=O)/C(C#N)=C\c1ccc(N2CCN(C)CC2)cc1	100	10	-16	120	-0.7	i	1.1
Cc1cc2cc(C(=O)N3CCc4c([nH]c5ccccc45)C3c3ccccn3)ccc2o1 (centres undefined)	100	·	·	·	·	i	0.84
CN1CCCN(C(=O)C2CCCCC2)CC1	100	-6	-47	121	·	i	1.2
Cc1ccc(S(=O)(=O)CCC(=O)OCC(=O)N2CC(=O)Nc3ccccc32)cc1	104	4	-17	115	0.0	i	0.81
C=CCNc1nc2c(c(=O)[nH]c(=O)n2C)n1Cc1cccc(C)c1	97	2	·	·	-0.6	i	0.75
CCOc1cccc(NC(=O)C2CC(=O)N(C)C2)c1 (centres undefined)	103	-1	-17	94	-1.9	i	0.68
CCOC(=O)N1CCN(C(=O)COc2ccc([N+](=O)[O-])cc2)CC1	202	-4	·	·	·	i	0.97
O=C(C1=NN[C@@H]2C(=O)N(c3cccc(C(F)(F)F)c3)C(=O)[C@H]12)C(c1ccccc1)c1ccccc1	98	3	·	·	1.3	i	1.1
O=C(Cn1c(COc2ccccc2)nc2ccccc21)Nc1cc(Cl)c(Cl)cc1Cl	101	1	29	101	·	i	0.72
CC(NC(=O)c1cc2c(s1)CCCC2)C(C)(C)C (centres undefined)	100	-3	12	89	1.7	i	1
Cc1ccc(NS(=O)(=O)c2ccc(OCC(=O)NCc3ccco3)cc2)cc1	93	1	29	116	-2.6	i	0.95
CCOC(=O)C1CCCN(C(=O)c2cc3cc(Br)ccc3oc2=O)C1 (centres undefined)	61	-2	-38	35	·	i	1
Cc1cc(C)nc(Nc2ncc(O)n2-c2ccccc2)n1	101	-1	23	116	-0.3	i	0.86
Cc1cc(=O)oc2c1c(C)nn2-c1nn[nH]n1	97	-3	49	75	-1.6	i	0.88
COCC(=O)NNC(=O)c1ccccc1OC	118	-10	·	·	·	i	0.97
CCOc1cc(-c2cc(-c3ccc(C)cc3)nc(N)c2C#N)ccc1O	98	-4	41	114	0.1	i	0.56
CN(c1ccc(C(=O)O)cc1)S(=O)(=O)c1ccc(Cl)cc1	95	-3	-272	22	-1.1	i	1.1
CCCCOC(=O)Nc1cccc(C(=O)OCC)c1	95	2	-23	113	-1.1	i	0.97
Cc1nn(Cc2ccccc2)c(=O)n1N(C)c1ncc(C(F)(F)F)cc1Cl	103	-2	-38	61	-0.5	i	0.81
COc1ccc(OC)c(NC(=O)C2CCCCC2C(=O)O)c1 (centres undefined)	100	-18	0	92	-0.6	i	0.98
CC(C)c1csc(CN2CCCC(CCC(=O)NCc3ccccc3F)C2)n1 (centres undefined)	110	0	-60	35	·	i	0.87
O=c1c(-c2ccco2)[n+]([O-])c2ccccc2n1OCc1ccccc1	99	-4	-24	114	-0.1	·	·
O=C(COC(=O)c1cc(-c2cccnc2)nc2ccccc12)Nc1ccc(F)cc1F	107	-1	·	·	-0.4	i	1.1
Cc1cccc(Oc2c(C=O)c3ccccc3n2C)c1	100	14	-61	140	-2.9	i	1
CCCCNC(=O)C1CCCN(S(=O)(=O)c2ccc(-n3cnnn3)cc2)C1 (centres undefined)	36	19	-3	94	-1.1	i	1
Cc1noc(C)c1CSc1nc2ccccc2c(=O)n1-c1ccc(F)cc1F	108	-3	·	·	-0.4	·	·
CCOc1ccc(OCC)c2sc(C)nc12	107	-11	-52	225	-4.1	i	0.94
CC(C(=O)NCC1(c2ccccc2)CCOCC1)N1CCOCC1 (centres undefined)	105	-5	14	117	·	i	1.2
CCc1onc(C)c1C(=O)Nc1cc(C)ccc1OC	111	1	9	108	-0.6	i	0.89
COc1ccc(CN(CC(=O)NCc2ccco2)C(=O)CCC(=O)Nc2nccs2)cc1	98	1	3	148	-0.3	i	0.93
COc1ccc(/C=N/NC(=O)c2ccc(-c3ccccc3)cc2)cc1O	108	-4	-7	86	-0.4	i	0.96
COc1ccc(S(=O)(=O)Nc2ccc3oc4ncccc4c(=O)c3c2)cc1OC	102	·	·	·	·	i	1.1
O=S(=O)(c1ccccc1Br)N1CCC(O)(c2cccnc2)CC1	138	0	·	·	·	i	0.92
COc1ccc(OC2C(=O)N(Cc3ccc4c(c3)OCO4)C2c2cccs2)cc1 (centres undefined)	112	-1	·	·	-3.8	i	1.1
O=S(=O)(Nc1cccc(-c2cn3c(n2)SCC3)c1)c1cccs1	99	7	·	·	·	i	0.95
CCn1c(SCC(=O)NNC(=S)Nc2ccccc2)nnc1-c1ccc(Cl)cc1	42	-8	13	67	-0.9	i	1.2
Cc1cc(C(=O)NCc2ccc(C(=O)O)o2)c(C)o1	101	-3	35	86	-1.4	i	0.92
O=C(Cn1cnc2c(oc3ccccc32)c1=O)c1ccccc1	110	-10	·	·	0.1	i	0.86
CCOC(=O)c1cc2sccc2n1CC(=O)O	157	-6	60	86	-1.1	i	0.9
CC(C)(C)c1ccc(C(=O)NC(=S)Nc2nc3c(s2)CCCC3)cc1	97	-10	-33	82	-1.7	i	0.91
CCOC(=O)N1CCC(N2Cc3cccc(C(=O)N4CCN(c5cccc(Cl)c5)CC4)c3C2=O)CC1	102	9	38	106	·	i	0.95
Cc1cc(NC(=O)CSc2nnc(C3CC3)n2N)c([N+](=O)[O-])cc1C	100	2	14	157	·	i	1.1
COc1cc(C(=O)Nc2ccc(S(=O)(=O)Nc3nccc(C)n3)cc2)c([N+](=O)[O-])cc1OC	99	·	·	·	·	i	1.2
O=C1OCc2cc(NS(=O)(=O)c3cccs3)ccc21	100	-4	-414	45	-1.5	i	0.94
CC(=O)NCC(=O)OC(C)C(=O)Nc1ccc(C(C)=O)cc1 (centres undefined)	104	-1	20	100	0.6	i	0.84
COc1cc(CNCCc2ccccc2F)ccc1OCc1ccc(Cl)nc1	67	-12	-24	108	-1.6	i	0.86
CCN1C(=O)CSc2ccc(C(=O)NCc3ccc(OC)cc3)cc21	98	4	·	·	-2.4	i	0.93
COc1cc(C=O)ccc1OCc1cccc(Br)c1	104	-6	0	107	-0.9	i	0.94
CCOC(=O)CN(C(=O)COc1nc(C)cc(C)c1C#N)c1ccc(Cl)cc1	99	·	·	·	·	i	0.86
Cn1c(=O)cc(SCC(=O)NCC2COc3ccccc3O2)c2ccccc21 (centres undefined)	116	-11	·	·	-2.7	i	0.9
Next part.
SMILES	RGS16-Gao HTS	PKD1 kinase inh	INS promoter inh	INS promoter inh cell count	GALR2 ag	HSV replic up	HSV replic up primary fold
CCN1CCCC1CNC(=O)Cn1cnc2sc(C)c(S(=O)(=O)N3CCC(C)CC3)c2c1=O (centres undefined)	104	-1	-50	117	1.1	i	0.81
c1ccc(CCN(Cc2ccccc2)C2CCN(C3CCCC3)CC2)cc1	110	-2	·	·	·	i	0.96
CC(O)c1cccc(NC(=O)CCC(=O)O)c1 (centres undefined)	101	3	-3	67	-0.7	i	1
Cc1c(C(=O)C(=O)N2c3ccccc3CC2C)c2ccccc2n1C (centres undefined)	106	3	·	·	·	i	0.92
c1ccc(Nc2nc(N3CCOCC3)nc(N3CCOCC3)n2)cc1	98	3	·	·	-1.4	i	0.95
CCc1cccc(CC)c1NC(=O)CSc1nc2ccc(N3C(=O)C4C(C3=O)[C@H]3C=C[C@@H]4C3)cc2s1 (some centres undefined)	97	-4	·	·	-1.3	i	1.1
CCCn1c(N)c(N2CCCCC2)c(=O)n(CC(=O)Nc2ccccc2)c1=O	97	-1	-41	78	-3.3	i	0.99
O=C(Nc1ccc(Br)cc1)c1ccc(F)c(S(=O)(=O)N2CCN(c3ccccn3)CC2)c1	104	5	50	142	·	i	0.82
Cn1c(SCC(=O)Nc2nc3ccccc3s2)nnc1-c1ccccc1	102	7	0	101	-1.3	·	·
COc1cccc(CNC(=O)c2cc3c(C)nc4ccccc4c3o2)c1	100	-17	·	·	-0.5	i	1

Limited to HSV replic up primary fold and INS promoter inh cell count, for some of the entries so far:
| canonical_smiles | HSV replic up primary fold | INS promoter inh cell count |
| --- | --- | --- |
| COc1ccc(OC)c(NC(=O)C2CCCCC2C(=O)O)c1 (centres undefined) | 0.98 | 92 |
| CC(C)c1csc(CN2CCCC(CCC(=O)NCc3ccccc3F)C2)n1 (centres undefined) | 0.87 | 35 |
| O=c1c(-c2ccco2)[n+]([O-])c2ccccc2n1OCc1ccccc1 | · | 114 |

Additional entries
SMILES	RGS16-Gao HTS	PKD1 kinase inh	INS promoter inh	INS promoter inh cell count	GALR2 ag	HSV replic up	HSV replic up primary fold
C=CCn1cnc2c(nnn2-c2cc(C)cc(C)c2)c1=O	102	0	·	·	·	i	0.94
CC(=O)Nc1ccc(S(=O)(=O)NNC2=NS(=O)(=O)c3ccccc32)cc1	99	1	-57	215	·	·	·
O=C(Nc1nnc(C2CCCO2)s1)c1ccc(Br)cc1 (centres undefined)	109	1	0	115	-0.9	i	1.1
Cn1cc(Cl)c(C(=O)OCC(=O)Nc2ccccc2)n1	101	-10	22	87	-2.5	i	0.96
CC(=O)Oc1ccc(/C=c2\sc3ncnn3c2=O)cc1	105	-6	-36	71	-0.3	i	0.93
Nc1c2c(nc3ccccc13)N(c1ccccc1)CC2	88	·	·	·	·	i	0.75
COc1ccc2cc(OC)c(C(=O)N3CCOCC3)cc2c1	104	-1	·	·	·	i	1
Cc1c(O)ccc2c(CN3CCN(C/C=C/c4ccccc4)CC3)cc(=O)oc12	104	·	·	·	·	i	1.1
CCN(CC)C(=O)c1ccc(N)cc1	103	-1	-58	140	·	i	1
O=C(COc1ccc(F)cc1Br)N1CCN(c2ncccn2)CC1	101	4	·	·	·	i	1

Already shown: 5 of the compounds above.
SMILES	RGS16-Gao HTS	PKD1 kinase inh	INS promoter inh	INS promoter inh cell count	GALR2 ag	HSV replic up	HSV replic up primary fold
Nc1c2c(nc3ccccc13)N(c1ccccc1)CC2	88	·	·	·	·	i	0.75
COc1ccc2cc(OC)c(C(=O)N3CCOCC3)cc2c1	104	-1	·	·	·	i	1
Cc1c(O)ccc2c(CN3CCN(C/C=C/c4ccccc4)CC3)cc(=O)oc12	104	·	·	·	·	i	1.1
CCN(CC)C(=O)c1ccc(N)cc1	103	-1	-58	140	·	i	1
O=C(COc1ccc(F)cc1Br)N1CCN(c2ncccn2)CC1	101	4	·	·	·	i	1

More results
SMILES	RGS16-Gao HTS	PKD1 kinase inh	INS promoter inh	INS promoter inh cell count	GALR2 ag	HSV replic up	HSV replic up primary fold
CSc1nc2c(c(=O)n1-c1ccc(C)cc1)SCC2	103	-12	-22	81	0.1	i	1.1
Cc1occc1C(=O)N/N=C/c1cccs1	110	8	31	111	-2.5	i	0.81
CN(C(=O)COc1ccccc1)c1nc(-c2ccc(F)cc2)cs1	115	-4	55	165	·	i	1
CCC(=O)Nc1ccc(C(=O)CSc2nc3ccccc3[nH]2)cc1	91	-9	60*	115*	0.3	i	0.8
COc1ccc(C2CC23N=C(c2ccccc2)OC3=O)cc1 (centres undefined)	78	-2	33	115	0.5	i	0.78
C=CCSc1nc2c(cc1C#N)CCC2	104	-10	30	56	-1.6	i	0.97
Cc1cccc2cc(CN(Cc3nnnn3Cc3ccccc3)C3CCCC3)c(=O)[nH]c12	98	9	66	29	-1.4	i	0.86
CC(C)COCc1ccc(O)c2ncccc12	96	0	·	·	·	i	0.88
O=C(c1ccc([N+](=O)[O-])cc1[N+](=O)[O-])N1CCCC1	103	-4	·	·	·	i	0.96
CCCOC(=O)c1c(NC(=O)CCCn2nc([N+](=O)[O-])c(Cl)c2C)sc(C(=O)OC)c1C	104	-1	13	137	-1.0	i	0.92
CC(=O)Nc1ccc(S(=O)(=O)NCCC(=O)Nc2ccc(C)c(Cl)c2)cc1	103	9	-25	82	-1.1	i	0.9
CC(=O)N(C)c1ccc(NS(=O)(=O)c2cc(Cl)ccc2Cl)cc1	79	2	13	99	·	i	1
Cc1sc2ncnc(SCC(=O)N(C(C)C)C(C)C)c2c1C	109	-2	·	·	·	i	0.96
CCSc1nnc(-c2ccc(OC)cc2)o1	104	6	-7	91	-2.1	i	1
COc1ccccc1NC(=O)CNC(=O)c1ccccc1	53	2	23	148	-3.4	i	0.95
COC(=O)c1ccc(COc2ccc(C=O)cc2OC)o1	101	-3	-14	101	·	i	0.98
CC(=O)c1ccc(Nc2ccc(-c3ccccc3F)nn2)cc1	107	-2	28	147	·	i	0.86
O=[N+]([O-])c1ccc(/C=C2\CCC(C3=CCCC3)=C2N2CCOCC2)cc1	79	5	22	164	-0.3	i	0.84

From PubChem
